High-throughput results: PubChem, National Center for Advancing Translational Sciences (NCATS)
Six1-Eya2 inh – blocks human Six1 binding to Eya2. AID 651725. AlphaScreen GST-Six1/His-Eya2 binding, biochemical; hits give low values; control for the full effect not named in the record. activity change, % (concentration not given with the values). hit rate 0.56% among 360,000; in the data active = activity change below about -65%; inconclusive = about -30% to -65%; inactive = above about -30%; further: on the % scale 0 is the no-effect control and ±100 the full control effect
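AlphaScreen luminescence read after one hour at 37 °C in darkness. Pin-transferred compounds met GST-Six1 and His-Eya2 protein (5X stock 250 nM/500 nM) plus glutathione donor and Ni-chelate acceptor beads (5X, 50 ug/mL).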
TRPV1 PAM – human TRPV1 potentiation. potentiation, % at 8.33 µM. TRPV1-expressing cells, Fluo-8 calcium influx, capsaicin EC20 potentiation; host cell line not named in the record; control for the full effect not named in the record. Q8NER1. hit rate 0.02% among 320,000. AID 540277; active means potentiation above 80%; inconclusive means 30% to 80%; inactive means below 30%; further: 0% is about no effect
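Cells expressing TRPV1 were dye-loaded with Fluo-8 and read kinetically: 10 s baseline, 3 min after compound (agonist portion), then 2 min after EC20 capsaicin (allosteric enhancer portion). Calcium-bound dye fluorescence at 480/520 nm.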
D2 PAM – human D2 receptor positive allosteric modulation; potentiation, % (concentration not given with the values); hit rate 0.23% among 360,000; DiscoveRx D2 beta-arrestin cells, luminescence, 90 min; 100% = 57 uM dopamine signal; P14416; AID 624464; active = potentiation of 50% or more; inconclusive = 30% to 50%; inactive = 30% or less;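 further: compound concentration not given in the record; tested on top of an EC20 dose of dopamine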
Target sequence (P14416 whole entry, looked up): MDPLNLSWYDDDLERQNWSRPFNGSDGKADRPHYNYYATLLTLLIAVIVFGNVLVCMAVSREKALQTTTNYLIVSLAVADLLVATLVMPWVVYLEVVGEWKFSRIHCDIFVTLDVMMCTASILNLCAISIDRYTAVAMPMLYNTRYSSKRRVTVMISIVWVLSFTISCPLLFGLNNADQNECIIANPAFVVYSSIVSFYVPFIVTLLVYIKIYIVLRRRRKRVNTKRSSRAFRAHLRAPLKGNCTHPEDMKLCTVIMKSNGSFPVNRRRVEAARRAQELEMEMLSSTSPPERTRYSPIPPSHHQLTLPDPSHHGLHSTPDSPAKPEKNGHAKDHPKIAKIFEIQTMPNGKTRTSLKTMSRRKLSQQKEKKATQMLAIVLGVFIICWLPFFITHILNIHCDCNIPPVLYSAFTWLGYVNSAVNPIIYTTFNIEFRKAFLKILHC
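PathHunter D2 cells, attached overnight at 37 deg C, received compound in DMSO plus dopamine at EC20 (50 nM final) for 90 min at 37 deg C. Beta-arrestin recruitment was read as luminescence after 1 h with detection reagent at ambient temperature.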
TRPML1 inh – blocks the human TRPML1 channel | Q9GZU1 | TRPML1-inducible cells, Ca2+ dye fluorescence, FDSS; hits give low values; inhibition of EC80 agonist-evoked calcium signal | activity change, negative = inhibition, % (concentration not given with the values) | hit rate 0.02% among 390,000 | AID 624415; in the data active means activity change below about -50%; inconclusive means about -30% to -50%; inactive means above about -30%;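 further: stimulus is agonist 54-4 at its EC80 concentration; on the % scale 0 is the no-effect control and ±100 the full control effect; compound concentration not given in the record; the text of the record puts the active cut at -80%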
Target sequence (Q9GZU1 whole entry, looked up): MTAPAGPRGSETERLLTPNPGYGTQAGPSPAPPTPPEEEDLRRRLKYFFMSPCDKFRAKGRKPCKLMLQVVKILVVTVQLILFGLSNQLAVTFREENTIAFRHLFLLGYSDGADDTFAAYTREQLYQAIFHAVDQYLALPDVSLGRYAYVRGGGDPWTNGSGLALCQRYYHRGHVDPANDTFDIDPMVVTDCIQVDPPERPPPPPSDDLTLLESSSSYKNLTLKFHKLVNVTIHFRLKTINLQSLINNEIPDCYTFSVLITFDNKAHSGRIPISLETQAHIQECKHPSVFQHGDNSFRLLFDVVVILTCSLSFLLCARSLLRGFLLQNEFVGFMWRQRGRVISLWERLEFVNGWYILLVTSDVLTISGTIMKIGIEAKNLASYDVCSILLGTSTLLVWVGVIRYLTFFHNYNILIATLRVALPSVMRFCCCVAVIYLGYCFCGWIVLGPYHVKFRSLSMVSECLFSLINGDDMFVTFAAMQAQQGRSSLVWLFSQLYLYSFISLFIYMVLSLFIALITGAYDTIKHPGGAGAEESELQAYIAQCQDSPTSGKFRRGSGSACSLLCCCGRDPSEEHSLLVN
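Tet-induced TRPML1-DL cells loaded with Ca8 no-wash calcium dye were read kinetically on FDSS. Compound addition was followed by EC80 agonist 54-4 (4 uM final); inhibition was read over 110 s.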
TRPML1 agonist – agonists of human TRPML1 channel. Q9GZU1. TRPML1-expressing cells, Ca2+ dye fluorescence, FDSS; host cell line not named in the record; reference of the full effect not given here. activation, % (concentration not given with the values). hit rate 0.12% among 410,000; in the data active = activation above about 50%; inconclusive = about 30% to 50%; inactive = below about 30%; further: 0% is about no effect; the text of the record puts the active cut at 80%
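Tet-induced TRPML1-DL cells, 1,500 per well, cultured overnight, were loaded with a no-wash Ca2+ dye for 45–90 min. Calcium fluorescence was recorded on the FDSS for 110 s after compound addition, before the EC80 agonist (4 uM 54-4) was added.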
CtBP-E1A inh – CtBP/E1A binding inhibition; activity change, % (test concentration not listed); AlphaScreen GST-E1A/His-CtBP binding, 1536-well; hits give low values; control for the full effect not named in the record; hit rate 0.49% among 340,000; AID 651724; in the data active means activity change below about -65%; inconclusive means about -30% to -65%; inactive means above about -30%; further: on the % scale 0 is the no-effect control and ±100 the full control effect; compound concentration not given in the record
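In 5 uL wells, 23 nL compound meets equimolar GST-E1A and His-CtBP (5X stock 125 nM each) for 2 h, 37 °C. Beads (5X, 50 ug/mL) then 1 h, 37 °C, dark.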
Active calls of the source: *; ? = inconclusive; . = not tested or not shown; & = joins results of further samples.

SMILES	Six1-Eya2 inh	TRPV1 PAM	D2 PAM	TRPML1 inh	TRPML1 agonist	CtBP-E1A inh
Cc1c(N)c(C(C)(C)C)cc(C(C)(C)C)c1[N+](=O)[O-]	-18	-15	-24	5	7.1	1
O=[N+]([O-])c1ccc(Nc2nccc(Cl)n2)cc1	-1	.	-5	33	1.5	-7
Cc1ccc(S(=O)(=O)N2CCC(C(=O)NCCN3CCOCC3)CC2)cc1	1	.	-5	3	-0.2	-3
O=C(NCCCN1CCCC1=O)C1CCN(S(=O)(=O)c2ccc(Cl)cc2)CC1	5	-25	2	6	1.0	2
COC(=O)C1C(O)=C(C=Nc2ccc(N)cc2)C(=O)CC1(C)C (configuration not stated)	-2	18	17	0	-0.2	0
CSCCC(NC(=O)c1ccco1)C(=O)NC1CCC(C)CC1 (configuration not stated)	0	.	2	1	-0.4	6
Cc1ccc(-c2csc3nc(-c4ccncc4)[nH]c(=O)c23)cc1	5	-4	-6	.	.	-8
COCCNC(=O)CSc1ncnc2sc(-c3ccccc3)cc12	5	-6	0	15	-1.0	-9
COC(=O)[C@H](C)NC(=O)NC1CCN(Cc2ccccc2)CC1	-2	-3	-20	-16	0.6	-3
COc1ccc(CC(=S)N2CCOCC2)cc1	3	3	0	-20	0.2	6
CCOC(=O)N1CCN(S(=O)(=O)c2cc(OCC)ccc2OCC)CC1	3	3	-1	-2	-1.2	-1
Cc1c(NC2(C#N)CCCC2)c(=O)n(-c2ccccc2)n1C	-1	?	-1	23	1.2	.
COc1cc2c(cc1OC)CN(CC(=O)NC(=O)NC(C)(C)C)CC2	2	-18	-9	39	1.0	-2
Cc1ccc(-c2nnc(CCC(=O)NCc3csc(C)n3)o2)s1	7	-10	-5	-3	0.0	7
COc1cc(F)c(S(=O)(=O)N2CCOc3ccccc32)cc1OC	-18	-2	-11	-29	0.0	-24
CC(=O)c1c(N2CCCCC2)nc(=S)n(-c2ccccc2)c1C	-2	1	1	-9	-0.5	4
CCN(CC)S(=O)(=O)c1ccc(C(=O)OCC(=O)NCc2ccco2)cc1	-8	3	-7	-10	-0.5	0
COc1ccc(CCN(C)CCC(=O)Nc2cccc(C)c2)cc1OC	-4	1	-18	-1	0.0	.
CC/C(=N\NC(=O)OC)c1ccc(OC(F)F)cc1	7	6	-13	-4	0.2	-3
COC(=O)C1CCN(C(=O)Nc2ccc(OC)cc2)CC1	2	2	-16	-6	0.0	3
CCCCc1nc2sc3c(SCC(=O)NCc4ccco4)ncnc3c2c2c1CCC2	1	-6	5	24	-0.2	2
CCN(c1ccc(F)cc1)S(=O)(=O)c1ccc2[nH]cc(C(=O)NCCCN3CCOCC3)c(=O)c2c1	1	-9	-9	3	-0.5	-5
CCOc1ccc(C2c3[nH]c4ccccc4c3CCN2Cc2cn(CC)nc2C)cc1 (configuration not stated)	-17	-1	-6	4	-0.1	-9
O=C(CC1Oc2ccccc2NC1=O)NCCCN1CCOCC1 (configuration not stated)	10	-3	-9	-7	0.4	4
Cc1cc(NC(=O)c2cc(-c3ccccc3)on2)n(-c2ccccc2)n1	2	8	-5	-1	-0.1	7
Cc1ccc2c(c1)N(CCCC(=O)NCCCN1CCCC1=O)C(=O)CO2	0	7	-2	-5	-0.3	1
Cc1ccc(Cc2c(-c3cccc(Br)c3)nc3cc(C)c(Br)c(C)n23)cc1	-5	.	-4	.	-0.7	0
O=C1CCC(=O)N1c1nc2n(n1)C(c1ccccc1)C=C(c1ccc(Br)cc1)N2 (configuration not stated)	-4	-2	-13	1	6.9	1
COc1ccccc1N(C(=O)c1snc(C(N)=O)c1N)C(C(=O)NC1CCCC1)c1ccc2ncccc2c1 (configuration not stated)	-4	1	-3	5	3.8	6
O=C(NCc1ccncc1)c1cc2ccccc2nc1Cl	4	2	-5	22	-0.2	-4
CC1CCN(C(=O)c2ccc(-c3ccccc3Cl)o2)CC1	1	-13	4	-13	1.4	-6
CCCc1cc(=O)[nH]c(SCC(=O)Nc2cccc(S(=O)(=O)N3CCOCC3)c2)n1	-9	8	-30	-10	-0.1	-4
CCOC(=O)c1nn(-c2cccc(OC)c2)c2nc(Nc3ccccc3)cc(=O)n12	?	1	-30	-8	3.7	6
O=C(Nc1ccc2c(c1)OCCO2)c1ccc(Cl)c(Cl)c1	-3	-43	-13	12	-0.5	4
Cc1ccccc1NC(=O)c1ccc(-c2ccc(Cl)cc2Cl)o1	15	3	1	-51*	3.4	17
Cc1cc2ncn(-c3ncccc3[N+](=O)[O-])c2cc1C	1	7	8	11	-0.5	5
CC(=O)Nc1cccc(NC(=O)CSc2ccc(-c3ccco3)nn2)c1	-13	6	-19	-3	-0.6	-11
COc1ccccc1C(=O)NCC(=O)OCC(=O)Nc1cccc(S(=O)(=O)N2CCCCCC2)c1	2	15	-9	-9	1.7	7
CCCCOc1ccc(NS(=O)(=O)c2ccc(-n3cnnn3)cc2)cc1	1	2	4	2	-0.1	4
CN(C)S(=O)(=O)c1ccc(Cl)c(NC(=O)c2ccncc2)c1	-5	8	-18	6	2.6	2
CCC1=C(OC(=O)N(CC)CC)N2C(=O)OC(=NCC3CC3)[C@]2(C)[C@H]2C1=CC[C@H]1C(=O)NC(=O)[C@H]12	5	-29	-7	21	1.2	-6
COc1cccc(CNC(=O)CSc2nc3ccc(C)cc3[nH]2)c1	-12	9	-10	.	.	-1
Cc1ccc(S(=O)(=O)c2cc(Nc3ccccc3)ccc2O)cc1	-16	9	-1	-3	0.2	-12
O=C(c1ccc(C(F)(F)F)cc1)N1CCC(=O)N(C(COCc2ccccc2)Cc2ccccc2)CC1 (configuration not stated)	2	-8	-11	61	1.1	4
COc1cc(NC(=S)N2CCC(C(O)(c3ccccc3)c3ccccc3)CC2)cc(OC)c1	-2	-2	-7	-6	0.7	.
C=CCSc1nc2sc3c(c2c(=O)n1CC)CCC3	-2	-5	13	-3	-0.8	.
Cc1ccc(NC(=O)CSc2nncs2)cc1Cl	34	-24	-19	-10	-0.3	.
Cn1c(-c2cccc3ccccc23)n[nH]c1=S	3	9	-10	-16	-0.4	8
O=C(Nc1nc2nc(-c3ccccc3)cc(=O)n2[nH]1)c1ccccc1	?	6	-4	-4	-0.8	-14
Cc1ccc(C)c(C(C)NC(=O)C2CCCC2)c1 (configuration not stated)	9	-5	-3	6	0.0	5
C/C(=N\OCC(=O)N/N=C/c1ccccc1)c1cccs1	2	-18	-5	23	0.8	4
CCC(=O)N1CCc2cc(Br)cc(S(=O)(=O)N3CCC(C(=O)NC(C)(C)C)CC3)c21	-7	5	-3	-16&-4	0.9&2.1	-1
O=C(CSCc1cccc(Br)c1)N/N=C/c1ccc2c(c1)OCO2	-18	4	-7	-5	-0.7	-25
COc1ccc(C(=O)N2CCCc3ccccc32)cc1OC	0	3	1	16	-1.0	-3
CN(CC(=O)Nc1ccc(Cl)cc1)C(=O)CCc1ccccc1	5	7	-17	14	1.9	1
Cc1ccc(S(=O)(=O)NC(=O)CSc2nc3ccccc3s2)cc1	3	5	-14	-5	-0.1	-1
Nc1ccccc1-c1nc2ccccc2[nH]1	-2	10	-11	4	-0.1	3
C=CCNC(C(=O)Nc1cccc(OC)c1)c1ccccc1 (configuration not stated)	6	-20	1	-3	0.0	-7
NC(=O)c1nsc(C(=O)N(Cc2ccc(F)cc2)C(C(=O)NC2CCCC2)c2ccco2)c1N (configuration not stated)	-6	-1	-3	25	-0.4	-3
Cc1cc(C)nc(N2N=C(C(C)(C)C)CC2=O)n1	3	-10	3	-7	0.4	3

In a second layout: 4 of the compounds above
smiles: O=C(Nc1nc2nc(-c3ccccc3)cc(=O)n2[nH]1)c1ccccc1
  Six1-Eya2 inh = ? | TRPV1 PAM = 6 | D2 PAM = -4 | TRPML1 inh = -4 | TRPML1 agonist = -0.8 | CtBP-E1A inh = -14
smiles: Cc1ccc(C)c(C(C)NC(=O)C2CCCC2)c1 (configuration not stated)
  Six1-Eya2 inh = 9 | TRPV1 PAM = -5 | D2 PAM = -3 | TRPML1 inh = 6 | TRPML1 agonist = 0.0 | CtBP-E1A inh = 5
smiles: C/C(=N\OCC(=O)N/N=C/c1ccccc1)c1cccs1
  Six1-Eya2 inh = 2 | TRPV1 PAM = -18 | D2 PAM = -5 | TRPML1 inh = 23 | TRPML1 agonist = 0.8 | CtBP-E1A inh = 4
smiles: CCC(=O)N1CCc2cc(Br)cc(S(=O)(=O)N3CCC(C(=O)NC(C)(C)C)CC3)c21
  Six1-Eya2 inh = -7 | TRPV1 PAM = 5 | D2 PAM = -3 | TRPML1 inh = -16&-4 | TRPML1 agonist = 0.9&2.1 | CtBP-E1A inh = -1

Continued:
SMILES	Six1-Eya2 inh	TRPV1 PAM	D2 PAM	TRPML1 inh	TRPML1 agonist	CtBP-E1A inh
CCOc1ccc(-n2c(-c3ccc(Br)cc3)c[n+]3c2CCCCC3)cc1	30	28	-10	7	-0.6	5
Cn1ccc(NC(=O)Nc2ccc(Cl)cc2Cl)n1	-11	-14	-5	12	1.3	-25
O=C(CN(C(=O)CNS(=O)(=O)c1ccccc1)c1ccc(F)cc1)NCc1ccco1	5	-1	-1	-6	-0.2	0
Cc1nc(NC(=O)COC(=O)CCS(=O)(=O)c2ccccc2Cl)c(Cl)cc1Cl	2	8	0	-9	1.5	6
COC(=O)c1ccc(COC(=O)C(NC(=O)Cc2ccccc2)C(C)C)cc1 (configuration not stated)	5	1	5	-13	1.1	8
Nc1ccccc1C(O)(Cc1ccccc1)c1ccccc1 (configuration not stated)	-7	16	-6	47	0.3	8
COc1ccc(CNC(=O)C2(CC(=O)NC(C)(C)C)CCCC2)cc1	5	5	-5	-8	2.1	4
O=C(N/N=C/c1ccncc1)c1cccc(NC(=O)c2ccc(Cl)cc2)c1	-1	1	0	4	0.1	-4
Cc1cc2c(cc1S(N)(=O)=O)S(=O)(=O)CCC2	-6	-9	9	20	0.4	-1
NC(=O)c1ccc(OCC(=O)N2CCNC2=O)cc1	7	.	1	-9	-0.6	7
Cc1cc(=O)oc2cc(OC(C)C(=O)N3CCCc4ccccc43)ccc12 (configuration not stated)	8	7	-6	-2	1.2	-1
CCOC(=O)Cc1c(C)nc2c(-c3ccc(Cl)cc3)c[nH]n2c1=O	-24	-3	-19	27	1.8	-12
COc1ccc(-c2c(C(C)=O)c(C)nc3sc4c(=O)[nH]nnc4c23)cc1	6	15	-3	7	1.0	-2
Cc1c(Cl)ccc2c1NC(=O)[C@]21N[C@@H](CCC(N)=O)[C@H]2C(=O)N(c3ccc(F)cc3)C(=O)[C@H]21	3	1	-17	-7	1.0	5
O=C(CCN1CCCCC1)Nc1ccc(F)c(F)c1	-3	.	-26	11	-0.6	-3
O=C(O)C(c1ccccc1)N1CCCC1 (configuration not stated)	2	-1	-11	4	-0.4	7
CS(=O)(=O)N(Cc1ccc(Cl)cc1)c1ccc(C(=O)NCCSCc2ccco2)cc1	-6	0	-4	9	3.0	-7
Clc1ncccc1-c1nc2ccccc2n1Cc1ccccc1	1	-5	-4	-2	-0.2	0
CC(=O)C[C@H]1c2ccccc2S(=O)(=O)N1c1ccccc1	2	.	-3	-6	0.7&-1.0	3
c1ccc(NN=C(c2ccccc2)c2cccs2)cc1	1	.	-6	3	-0.7	1
FC(F)(F)c1cc(-c2ccco2)nc(N2CCN(c3ccccc3)CC2)n1	1	-7	12	2	-0.1	5
COc1ccc(CN2CCOCCOCCOCCOCC2)cc1	7	-22	16	-5	-1.1	2
